Source: PubChem BioAssay
Beta apoptosis – blocks beta cell apoptosis; INS-1E cytokine-induced death, ATP luminescence, 48 h; percent of positive-control rescue, neutral wells zero; protection from apoptosis, % (concentration not given with the values); actives 0.8% (n = 300,000);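 active means all replicates at 75% or more, or half of them and the mean; inconclusive means half reach 75% but not the mean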;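 further: 0% = cytokine-treated negative control wells and 100% = positive control rescue; higher means more ATP so stronger rescue from cytokine killing; wells of about 40 µL received 100 nL stock; the first replicate is given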
A1 inh – inhibitors of the anti-apoptotic protein A1, read as caspase activation; caspase activation, % (concentration not given with the values); AID 2462; actives 0.066% (n = 330,000); MEF A1-2A-BIM cells, Caspase-Glo 3/7 luminescence, 3 h; percent of clofoctol response, vehicle zero;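 active means over half of replicate activation scores above 10%, or exactly half above 10 with the replicate mean above 10; inconclusive means replicate mean below 10 yet half the replicates above 10; inactive means over half of replicates below 10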;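 further: wells of about 30 µL received 50 nL stock; many hits fall short of the cut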
T cruzi repl – blocks replication of Trypanosoma cruzi; actives 1.4% (n = 300,000); AID 1885; T. cruzi beta-gal in NIH3T3, luminescence, 90 h; inhibition, % (test concentration not listed);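 active means mean inhibition across valid replicates above about 55%, limit read from the data; inconclusive means mean below that limit but half or more replicates reach it; inactive means mean below it, under half of replicates reach it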;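 further: signal also drops with host cell toxicity which is not excluded here; 0% = plate median of DMSO wells and 100% = zero luminescence signal; higher percent means less beta-gal luminescence so fewer parasites; stock transfer was 50 nL into about 50 µL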
Beta2AR agonist – activates human beta-2 adrenergic receptor causing internalization; Am2.2-beta2AR cells, FAP receptor internalization, flow cytometry; reference of the scale not given here; response, % (test concentration not listed); actives 0.43% (n = 340,000);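 active means response above a set limit, near 3 SD of response in nonfluorescent compounds, cut at about 42% in these data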;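 further: stock transfer was 100 nL into about 11 µL; a reference agonist was the positive control; negative values mostly stem from fluorescent compounds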
ALR H2O2 inh – human ALR oxidase inhibition via reduced H2O2. P55789. purified ALR, DTT oxidation, H2O2 HRP-luminol luminescence. inhibition, % (test concentration not listed). actives 3.8% (n = 290,000);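 active means mean and each replicate at 75% or more; inconclusive means only one of the two met; inactive means neither met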;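 further: stock transfer was 7.5 nL into about 7.5 µL; 0% = neutral wells and 100% = wells with inactivated enzyme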
rRNA inh HTS – selective bacterial rRNA inhibition in E. coli; AID 720706; E. coli WT GFP vs humanized-ribosome RFP mutants, fluorescence, 24 h; stronger effect = lower value; DMSO median 0, no signal -100; actives 1.6% (n = 350,000); GFP signal change (wild-type ribosome), % (test concentration not listed);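 active means significant combined selectivity score with lowered wild-type GFP, culture density cut under 30%, mutant RFP and density less affected; inactive means any of these conditions unmet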; further: one replicate is shown; some compounds called inactive have numbers as strong as hits
Calb FLC – C. albicans growth modulation with fluconazole; C. albicans CaCi-2 (fluconazole-resistant clinical isolate) + fluconazole, Alamar Blue growth, 48 h; growth inhibition, % (no concentration beside the values); actives 0.57% (n = 300,000);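 active means most replicates above 75%; inconclusive means exactly half above 75%; inactive means most below 75%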;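 further: all wells also contain fluconazole at 8 µg/ml as a sub-toxic cotreatment; 0% = median of DMSO wells and 100% = median of geldanamycin control wells; wells of about 8 µL received 7.5 nL stock; the first replicate is given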
LANA-H2A inh – blocks KSHV LANA binding to histone H2A/H2B | cell-free LANA-H2A/H2B peptide, fluorescence polarization | actives 0.6% (n = 320,000) | inhibition, % (test concentration not listed); in the data active means inhibition mostly above about 10%, no sharp cut-off; inactive means mostly below about 6.7%;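 further: stock transfer was 7.5 nL into about 10 µL; 0% = median of vehicle wells and 100% = median of positive control wells; one replicate is shown; the record names a cut of 25% in any replicate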
Target sequence (Q9QR71 whole entry, looked up): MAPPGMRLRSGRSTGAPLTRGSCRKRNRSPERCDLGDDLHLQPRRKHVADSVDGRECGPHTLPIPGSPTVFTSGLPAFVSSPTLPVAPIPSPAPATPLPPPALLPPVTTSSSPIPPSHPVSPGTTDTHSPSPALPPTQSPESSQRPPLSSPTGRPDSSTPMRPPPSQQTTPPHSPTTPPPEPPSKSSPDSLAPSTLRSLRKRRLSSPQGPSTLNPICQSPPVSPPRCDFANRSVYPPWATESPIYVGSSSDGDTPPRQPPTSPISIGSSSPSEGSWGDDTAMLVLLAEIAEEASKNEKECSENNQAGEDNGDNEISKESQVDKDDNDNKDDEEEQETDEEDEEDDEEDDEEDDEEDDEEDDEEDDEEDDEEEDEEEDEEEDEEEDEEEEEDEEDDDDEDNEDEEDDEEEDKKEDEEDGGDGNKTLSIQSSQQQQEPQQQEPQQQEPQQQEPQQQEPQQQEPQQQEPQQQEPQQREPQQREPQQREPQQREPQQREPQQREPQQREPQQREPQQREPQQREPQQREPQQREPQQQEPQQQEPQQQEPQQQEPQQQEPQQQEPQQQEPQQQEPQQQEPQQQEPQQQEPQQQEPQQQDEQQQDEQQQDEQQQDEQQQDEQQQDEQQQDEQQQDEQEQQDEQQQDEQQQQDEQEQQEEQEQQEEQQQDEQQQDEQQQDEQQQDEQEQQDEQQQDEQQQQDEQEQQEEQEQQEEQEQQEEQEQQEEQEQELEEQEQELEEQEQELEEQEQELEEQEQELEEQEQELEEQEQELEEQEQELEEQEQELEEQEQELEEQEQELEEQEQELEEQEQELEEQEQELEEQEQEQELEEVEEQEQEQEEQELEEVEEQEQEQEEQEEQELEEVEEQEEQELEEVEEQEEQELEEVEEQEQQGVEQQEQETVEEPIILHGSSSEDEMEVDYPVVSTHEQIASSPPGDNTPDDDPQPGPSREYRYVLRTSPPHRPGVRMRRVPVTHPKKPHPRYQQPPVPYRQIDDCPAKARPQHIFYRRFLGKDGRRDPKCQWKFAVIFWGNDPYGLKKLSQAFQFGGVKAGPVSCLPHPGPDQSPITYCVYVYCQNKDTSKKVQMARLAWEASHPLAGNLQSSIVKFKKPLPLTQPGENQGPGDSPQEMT
rRNA inh HTS OD600 – also measured in rRNA inh HTS; calls as there; OD600 change, %; measured here: OD600 growth;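 optical density of the mix in the first replicate; 0 = DMSO median and -100 = no signal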
rRNA inh HTS RFP – recorded beside rRNA inh HTS, whose call it bears; RFP signal change, %; measured here: RFP humanized mutant strains;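 first replicate; 0 = DMSO median and -100 = no signal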
An asterisk follows results filed as active; ? = inconclusive; / = not tested or not shown.

SMILES	Beta apoptosis	A1 inh	T cruzi repl	Beta2AR agonist	ALR H2O2 inh	rRNA inh HTS	rRNA inh HTS OD600	rRNA inh HTS RFP	Calb FLC	LANA-H2A inh
CO[C@@H]1[C@@H](OC(N)=O)[C@@H](O)C(Oc2ccc3c(O)c(NC(=O)c4ccc(O)c(CC=C(C)C)c4)c(=O)oc3c2C)OC1(C)C (stereo partly drawn)	-11	0.0	/	3	2	/	/	/	/	3.3
OC1CCN(c2c3c(nc4cc(-c5cccc(F)c5)nn24)CCCC3)CC1	/	-0.9	12	2	2	-19*	-10*	5.5*	0	13
COc1nc(N2CCCC2)nc(-n2nnc(C(C)=O)c2C)n1	0	0.7	-20	-7	12	-10	-7	-8.6	1	3.7
CCN(c1cc(C)cc(C)c1)S(=O)(=O)c1nnc(NC(=O)C(C)(C)C)s1	9	0.5	8	5	-22	3	2	-3.0	3	2.1
COc1ccccc1Nc1nc(-c2ccc([N+](=O)[O-])cc2)nc2ccccc12	13	-0.4	2	-6	-19	/	/	/	-12	3.7
Cc1nn(-c2ccccc2)c2c1C(=O)NC(=O)C(C)(C)C2	-7	-0.1	-18	-2	-4	/	/	/	2	-0.7
O=[N+]([O-])c1cccc(C=Nc2cc3c(cc2Br)OCCO3)c1	3	0.3	/	4	1	5	12	4.4	/	/
CCC(C)NC(=O)c1ccc(C(=O)c2ccccc2)cc1 (stereo not drawn)	2	0.9	5	-12	/	1	-4	-3.6	2	-2.5
COc1ccc(N2CCN(c3nc(Cl)nc(Nc4ccc(F)cc4)n3)CC2)cc1	9	-0.2	18	10	/	/	/	/	7	6.2
Cc1ccccc1C(=O)N1CCC(C(=O)N(CC(C)C)c2c(N)n(CC(C)C)c(=O)[nH]c2=O)CC1	2	2.2	/	-1	4	2	1	1.0	/	-4.7
Cc1cc(NC(=O)CCC(=O)N(Cc2ccco2)C2(C(=O)NC3CCCC3)CCC(C)CC2)no1 (stereo not drawn)	4	0.3	6	-10	/	-4	-27	3.1	6	8.5
Cc1cc(C)c2nc(SCCC#N)nc(C)c2c1	2	-0.3	1	4	-4	/	/	/	5	3.8
Cn1cc(Cl)c(C(=O)NC2CCCCCC2)n1	-2	0.5	-7	-9	4	/	/	/	-4	0.8
COc1cccc2sc3cc(C#Cc4ccccn4)ccc3c(=O)c12	0	-7.5	/	-5	2	-1	-19	11	/	0.5
CCN(CC)S(=O)(=O)c1cccc(NC(=O)CNc2cccc(S(=O)(=O)N3CCCC3)c2)c1	112*	-0.5	7	-3	-5	-23*	-12*	1.5*	2	-2.7
Cc1ccc(C(=O)OCC(=O)Nc2ncc(Cl)cc2Cl)cc1NC(=O)c1ccco1	-6	-0.3	/	-14	7	1	3	0.2	42	4.9
C=CCNC(=O)C1CCN(S(=O)(=O)c2ccc(Br)cc2)CC1	-2	0.3	4	-3	3	/	/	/	-3	6.0
O=C1CC2(CCN(S(=O)(=O)c3ccccc3F)CC2)Oc2ccccc21	-4	-0.3	0	18	2	-4	-14	3.3	5	12
C[C@@]12C(=O)N(Cc3ccc(-c4ccccc4)cc3)CC(=O)N1[C@H](/C=C/c1ccccc1)[C@@H]1C(=O)N(c3ccccc3)C(=O)[C@@H]12	-4	-0.5	-29	10	/	9	14	-0.5	4	-4.9
COc1ccccc1N1CCN(C(c2ccccn2)c2nnnn2C2CCCCC2)CC1 (stereo not drawn)	2	1.3	15	-1	18	/	/	/	-7	-5.2
CCn1c(COc2ccccc2)nc2ccccc21	2	-1.8	-3	-5	-3	/	/	/	-3	-1.2
CCc1nn2c(=O)c(S(=O)(=O)Nc3cccc(F)c3)c(C)nc2s1	-2	-0.6	-9	-1	1	-8	-12	0.6	4	0.5
COc1cc(OC)cc(-c2c(-c3cccs3)c3cc(-c4ccc(OC)nc4)ccc3n2C)c1	4	0.2	/	-3	-18	-3	-7	-10	/	1.5
Cc1ccc(NC(=O)c2ccccc2OCc2ccc([N+](=O)[O-])cc2)nc1	9	0.3	12	1	-1	3	8	-0.8	-39	1.4
CC1CCc2c(C(=O)Nc3ccc(OC(F)(F)F)cc3)csc2C1 (stereo not drawn)	3	-0.2	8	1	-10	/	/	/	-3	6.7

(listing goes on)
SMILES	Beta apoptosis	A1 inh	T cruzi repl	Beta2AR agonist	ALR H2O2 inh	rRNA inh HTS	rRNA inh HTS OD600	rRNA inh HTS RFP	Calb FLC	LANA-H2A inh
COc1ccc(C(=O)C2=NN(C(C)=O)CC2c2ccco2)cc1 (stereo not drawn)	-2	0.0	-8	-10	-159	-5	-9	2.4	28	-2.7
CCCOc1ccc(N2C(=O)CC(N3CCC(c4nc5ccccc5o4)CC3)C2=O)cc1 (stereo not drawn)	1	0.6	-10	/	-13	/	/	/	16	6.6
COC(=O)C1=C(C)N(Cc2cccnc2)C(=O)/C1=C\c1cccs1	8	-0.3	-7	/	0	4	12	-3.5	-4	0.7
CC(=O)N1CCc2ccc(S(=O)(=O)Nc3ccccc3Cl)cc21	-3	-0.3	-5	-2	43	9	0	-2.7	30	2.4
CCC(=O)N(C1=C(NC)C(=O)c2ccccc2C1=O)C(C)C	45	-0.4	-14	-5	-8	-12	-17	7.2	18	-14
CCc1c(C)nc(SC/C=C/c2ccccc2)[nH]c1=O	-4	-1.0	-3	1	-8	/	/	/	2	-3.7
COC(=O)c1ccc(COc2cccc3c2CCN(Cc2cccc(C)c2)C3=O)o1	-8	-0.8	6	2	-5	-19	-18	6.2	21	-0.8
Cc1ccc(/C=N\NC(=O)c2cc([N+](=O)[O-])cc([N+](=O)[O-])c2)o1	-9	-0.1	45	-8	/	/	/	/	-2	/
Cc1csc(NC(C)c2nc3cc(Cl)c(N4CCCCC4)cc3n2CCOCCO)n1 (stereo not drawn)	-1	-0.1	8	-1	11	-1	12	14	0	-2.2
O=C1CC[C@@H](C(=O)N2CSC[C@H]2C(=O)O)N1	4	-1.1	-10	-4	-9	12	16	0.6	/	-2.7
COc1ccc(CC(=O)Nc2c3c(nn2-c2cccc(C)c2C)CS(=O)(=O)C3)cc1	0	-0.1	-1	-10	-15	/	/	/	?	-7.6
CCc1ccc(C(=O)N2CCCC2)s1	1	-0.7	2	8	-1	/	/	/	-24	3.7
Cc1ncn(-c2ccccc2)c1-c1ccccc1	4	-0.6	-10	-3	2	-2	2	-4.7	-11	-4.5
COc1ccc(NC(=O)c2ccc(NC(=O)CN(C)CC(=O)Nc3c(C)cccc3C)cc2)cc1	-2	0.0	-9	8	-6	5	5	-1.8	8	-0.9
CC(=O)Nc1cccc(-n2c(=O)n(Cc3ccccc3)c(=O)c3[nH]cnc32)c1	-9	0.0	-6	18	-2	6	9	1.9	-3	8.0
CC1(C)CC(=O)N(c2ccc(Cl)cc2Cl)C(=O)C1	-6	0.1	-2	7	-11	2	-1	-2.2	1	-6.6
CCOc1cccc(C(=O)Nc2ccc3ccccc3c2)c1	3	-11	-16	8	/	-14	-13	-1.9	3	-3.3
CCN(CC)c1ccc2c(Cl)c(Br)c(=O)oc2c1	-1	1.5	59*	/	27	/	/	/	5	3.3
COc1ccccc1N1CCN(C(=O)c2cccc3c(=O)c(C)c(-c4ccccc4)oc23)CC1	6	-1.0	19	8	-9	0	-9	2.5	?	-1.3
O=C(NCC1CCCCC1)c1ccc(F)c(S(=O)(=O)N2CCOCC2)c1	-4	0.5	/	-7	4	-4	-2	0.0	/	3.0
COc1cccc(C#Cc2c(CO)[nH]c3ccccc23)c1	-4	-1.1	/	1	18	12	9	3.2	/	-2.1
C/C(=N\O)c1ccco1	1	0.4	/	-4	-1	6	14	-6.9	/	0.7
COc1ccc(/C=C(/C#N)c2cccnc2)cc1OC	-3	-0.4	8	2	/	3	-1	1.0	-2	-3.7
O=S(=O)(Nc1ccon1)c1ccc(Br)cc1	/	-0.4	5	-1	-11	16	11	1.2	-2	-2.6
Cc1ccc2cc(C(c3nnnn3C3CCCC3)N3CCN(c4ccccc4)CC3)c(=O)[nH]c2c1 (stereo not drawn)	-8	-0.3	16	0	-29	/	/	/	-11	4.0

The listing continues:
SMILES	Beta apoptosis	A1 inh	T cruzi repl	Beta2AR agonist	ALR H2O2 inh	rRNA inh HTS	rRNA inh HTS OD600	rRNA inh HTS RFP	Calb FLC	LANA-H2A inh
Cc1nc2c(-c3ccc(F)cc3)c(C)nn2c(C)c1CCC(=O)NCc1ccco1	1	0.4	24	-5	/	2	0	0.8	1	-5.7
C=CCNC(=S)Nc1cccc(NC(=S)NCC=C)c1	-1	1.0	-11	-1	-19	3	11	2.2	-22	-2.9
COc1ccc(-n2cnnc2SCC(=O)Nc2ccc(C(N)=O)cc2)cc1	-3	0.3	4	2	0	4	2	-1.1	0	2.6
O=c1[nH][nH]c(-c2ccccc2O)c1C(C[N+](=O)[O-])c1ccc(Br)cc1 (stereo not drawn)	3	0.4	-6	9	88*	-53	-61	-21	21	3.3
O=[N+]([O-])c1ccc(N/N=C/c2cn(Cc3ccc(F)cc3)c3ccccc23)nc1	-3	1.1	41	-84	/	/	/	/	0	-3.4
COc1ccc(OC)c(/C=C/C(=O)OCC(=O)NCc2ccccc2)c1	3	0.3	/	-2	1	-1	-8	3.5	/	-6.5
COc1ccc(NS(=O)(=O)c2cccc(C(=O)N(C)Cc3cccs3)c2)cc1	1	0.0	17	-4	/	0	-7	1.9	8	3.0
Cc1ccccc1OCC(=O)Nc1nnc(C2CCCCC2)s1	0	0.7	0	-5	/	9	7	-1.5	6	5.1
CCCCOc1[nH]c2nc(-c3ccco3)n(Cc3ccco3)c(=N)c2c1C#N	10	-0.5	22	14	31	/	/	/	6	11
Cc1ccc(-c2cc(C(=O)NCCCN3CCOCC3)c3ccccc3n2)cc1C	2	0.3	24	8	/	-9	-2	6.9	23	-2.9
COC(=O)c1ccc(C(=O)OC)c(NC(=O)CSCC(=O)O)c1	-2	-1.6	-27	1	2	-6	-12	2.8	-14	-1.6
Cc1ccc(NC(=O)C2CC(=O)n3c(nc4ccccc43)N2)cc1Cl (stereo not drawn)	0	-0.7	10	3	-3	18	1	2.8	-5	-1.0
CCOC(=O)N1CCN(c2cccc(C)c2C)CC1	-4	-0.2	7	-6	-4	-9	-2	-4.3	5	2.8
Cc1cc(=O)c(C(=O)O)nn1-c1ccccc1[N+](=O)[O-]	-6	-0.1	-11	3	-8	15	9	1.3	0	-2.2
Cc1ccc(C(=O)NC(C)C2CCCO2)o1 (stereo not drawn)	3	-0.1	-12	7	-3	-5	-30	2.9	3	-1.8
C[C@@H](NC(=O)c1coc(=O)c(Br)c1)c1ccccc1	20	-0.5	-15	7	-13	/	/	/	4	5.5
CC(C)CNS(=O)(=O)c1cc(C(=O)O)c(Cl)cc1Cl	-8	-0.9	7	0	0	7	-1	-3.5	-7	-5.1
CCc1cccc(C)c1NC(=O)Cn1nc(C)n2cccc2c1=O	-3	-0.5	3	-1	-11	16	13	2.1	-5	1.7
COCCCNC(=O)c1c[nH]c2ccc(S(=O)(=O)N3CCc4ccccc43)cc2c1=O	-3	-0.3	-1	2	-38	15	20	2.8	30	6.0
CCn1nnnc1NCc1ccc(Cl)cc1	/	0.3	-3	2	-5	7	0	1.9	-2	-3.5

Only part of the results is shown; rates above refer to the full screens.
